Screening data (PubChem BioAssay)
Mtb growth: M. tuberculosis H37Rv growth inhibitors, H37Rv strain (AID 1626). M. tuberculosis H37Rv growth inhibition; higher % means a stronger effect. inhibition, % at 10 µM; hits with a dose series show IC50 in µM. 0.95% of 220,000 active;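 active = confirmed in a dose series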;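 also: bacteria incubated seven days before Alamar blue readout; 0% = bacteria only wells and 100% = bacteria with antibiotic wells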
Arbovirus inh: antivirals against arbovirus infection, primary screen, cell-based, full library, 10K replicate subset; arbovirus infection cell-based antiviral screen; inhibition, % at 10 µM; 0.37% of 200,000 active;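 active = inhibition from about 30%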;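 also: bluetongue infection of BSR cells; cell survival read as ATP light after 72 h; 0% = infected wells without compound and 100% = uninfected wells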
Mtb bLac sens: beta-lactam sensitization of Mtb H37Rv, H37Rv | inhibition, % at 25 µM | 0.27% of 330,000 active | M. tuberculosis H37Rv growth with meropenem, percent inhibition; hits of this screen are not shown here | AID 434955, 2010;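 active = about 74% or more and at least 40 points above the plate without the antibiotic, then above 30% in a dose series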;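 also: growth measured after seven days incubation then overnight dye step; 0% = bacteria only wells and 100% = bacteria with antibiotic; twin plates without the antibiotic show which effects depend on it; some results filed as inactive read as strong as hits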
YopH PTP inh: YopH tyrosine phosphatase inhibitors, primary screen, biochemical, fluorescence Ex485/Em525. AID 898, 2007. 0.16% of 140,000 active. YopH tyrosine phosphatase [Yersinia enterocolitica]. inhibition, %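 (about 10 µM by stock and volumes)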;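 active = inhibition of 50% or more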;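 also: controls were vehicle for no effect and minimum signal wells for full effect; inactives centre near -20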
RecA splice inh: Mtb RecA intein splicing inhibitors, primary screen, biochemical, fluorescence, HTS; Protein RecA (Mycobacterium tuberculosis (strain ATCC 25618 / H37Rv)), P9WHJ3; cell-free RecA intein splicing; inhibition, %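 (about 9 µM by stock and volumes)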; 0.75% of 290,000 active; in the data active = inhibition above about 30%;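 also: 0% = vehicle wells and 100% = reference inhibitor control wells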
Target sequence (P9WHJ3 whole entry, looked up, canonical isoform): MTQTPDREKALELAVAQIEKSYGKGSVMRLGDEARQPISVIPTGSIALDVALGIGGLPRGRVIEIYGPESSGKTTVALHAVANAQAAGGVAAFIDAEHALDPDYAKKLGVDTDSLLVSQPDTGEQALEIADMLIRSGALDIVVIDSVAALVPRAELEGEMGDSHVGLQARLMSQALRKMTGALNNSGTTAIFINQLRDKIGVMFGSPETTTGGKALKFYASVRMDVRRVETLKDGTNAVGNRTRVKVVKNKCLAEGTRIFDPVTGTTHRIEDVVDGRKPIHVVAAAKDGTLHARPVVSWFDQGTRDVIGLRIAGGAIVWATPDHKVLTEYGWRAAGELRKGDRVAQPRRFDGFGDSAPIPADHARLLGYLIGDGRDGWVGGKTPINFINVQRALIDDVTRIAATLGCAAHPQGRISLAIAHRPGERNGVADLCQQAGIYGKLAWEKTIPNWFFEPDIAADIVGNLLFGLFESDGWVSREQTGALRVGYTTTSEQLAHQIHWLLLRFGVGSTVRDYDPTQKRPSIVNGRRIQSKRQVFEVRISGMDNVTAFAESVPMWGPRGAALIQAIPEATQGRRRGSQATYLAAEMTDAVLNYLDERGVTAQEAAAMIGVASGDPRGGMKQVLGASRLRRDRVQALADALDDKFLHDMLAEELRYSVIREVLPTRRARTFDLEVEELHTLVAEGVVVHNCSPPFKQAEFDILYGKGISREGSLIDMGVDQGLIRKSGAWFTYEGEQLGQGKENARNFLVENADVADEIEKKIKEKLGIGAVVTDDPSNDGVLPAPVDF
Arbovirus inh repeat: recorded beside Arbovirus inh, whose call it bears; inhibition, %; measured here: 10K subset replicate screen; many hits read low in the repeat;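 first of two repeat runs on a subset; 0% = infected and 100% = uninfected wells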
Numbers without * were called inactive. A portion of the library (hit frequency here may not be typical).

`COc1cccc(CNC(=O)CCC2CCCN(C(=O)c3ccccc3N(C)C)C2)c1` (configuration not stated) gave Mtb bLac sens -6 and RecA splice inh -0.7.
Screening Cc1nn(C)c(C)c1CN(C)C(=O)c1cc2n(n1)C(C(F)(F)F)CC(c1cccs1)N2 (configuration not stated) returned Mtb growth -2%, Arbovirus inh 1, Mtb bLac sens 3, YopH PTP inh -1 and RecA splice inh -1.6.
For O=S1(=O)[C@H]2C[C@@H]3CC[C@]2(CN1Cc1cccc(F)c1)O3 the results were Mtb growth 9%, Mtb bLac sens -6 and RecA splice inh -1.1.
NNc1nc2c(F)cc(F)cc2s1 was read as Mtb growth 77%, Arbovirus inh 12, Mtb bLac sens 82, YopH PTP inh -7 and RecA splice inh -1.6.
`Fc1ccc2[nH]c3c(NCc4ccccc4)ncnc3c2c1` gave Mtb bLac sens 83 and RecA splice inh 0.7.
Screening O=C(Cn1cnc2c(nnn2Cc2ccc(F)cc2)c1=O)Nc1ccccc1 returned Mtb growth -2%, Mtb bLac sens -2 and RecA splice inh 2.0.
For CN(C)c1ccc(Nc2cc(Cl)ncn2)cc1 the results were Mtb bLac sens 3 and RecA splice inh -4.0.
Screening NCCCC[C@@H](C(=O)NCCCCCCCCCCC(=O)N1CCNCC1)n1cc(CCCC(=O)O)nn1 returned Mtb bLac sens -4 and RecA splice inh -3.7.
CCc1nc2c(nnn2Cc2ccc(F)cc2)c(=O)[nH]1 was read as Mtb growth -9%, Arbovirus inh 1, Mtb bLac sens 5, YopH PTP inh -22 and RecA splice inh 1.6.
`Cc1ccc(C(=O)N2CCN(S(=O)(=O)c3ccc(C)c([N+](=O)[O-])c3)C2)cc1` gave Mtb growth -3%, Arbovirus inh 2, Mtb bLac sens -1 and RecA splice inh -1.6.
O=C(Nc1ccc(F)cc1)c1ccc2c(=O)n(CC3CCCO3)c(=S)[nH]c2c1 (configuration not stated) was read as Mtb bLac sens 4 and RecA splice inh -1.5.
`Cc1cc(NS(=O)(=O)c2ccc(NC(=O)COc3ccccc3Cl)cc2)no1` gave Mtb growth -3%, Arbovirus inh -7, Mtb bLac sens -12, YopH PTP inh -25 and RecA splice inh 2.1.
Cn1c(=O)c2c(nc(NCCCO)n2CCc2ccccc2)n(C)c1=O was read as Mtb growth 6%, Arbovirus inh 0, Mtb bLac sens 0, YopH PTP inh -18 and RecA splice inh -1.1.
`CN(C(=O)c1ccc(NC(=O)Cc2ccccc2)cc1)c1ccccc1` gave Mtb bLac sens 3 and RecA splice inh 3.9.
COc1ccc2cc(CCNC(=O)c3cc4ccccc4o3)c(=O)[nH]c2c1 was read as Mtb bLac sens -9 and RecA splice inh -2.3.
Screening Cc1cn2c(=O)c(C(=O)N3CCN(c4ccccc4)CC3)cnc2s1 returned Mtb bLac sens -10 and RecA splice inh 0.2.
For COc1ccc(S(N)(=O)=O)cc1C(=O)NCCCN1CCN(c2ccc(C)cc2)CC1 the results were Mtb growth 1%, Arbovirus inh 1, Mtb bLac sens -2, YopH PTP inh 10 and RecA splice inh 7.0.
`COCCCNC(=O)/C(C#N)=C/c1cccc(NC(=O)c2ccccc2Cl)c1` gave Mtb growth 6%, Arbovirus inh 1, Mtb bLac sens -3, YopH PTP inh -22 and RecA splice inh 5.9.
`Cc1cc2c3c(ccc(C)c3n1)N=CN2c1ccccc1` gave Mtb growth -14%, Arbovirus inh 5, Mtb bLac sens -17, YopH PTP inh -24 and RecA splice inh -221.
CSCC[C@H](NC(=O)[C@@H]1CSC2c3ccccc3C(=O)N21)C(=O)NCc1ccco1 (some centres not stated) was read as Mtb bLac sens -3 and RecA splice inh -0.5.
Screening CCOc1ccccc1/C=C/C(=O)c1ccc(Cl)cc1 returned Mtb growth 24µM*, Arbovirus inh 3, Mtb bLac sens 86, YopH PTP inh -9 and RecA splice inh -1.7.
COc1ccc2ccccc2c1C(=O)/C=C\c1ccoc1 was read as Mtb growth 6%, Arbovirus inh 2, Mtb bLac sens -4, YopH PTP inh 0 and RecA splice inh 9.6.
Screening Cc1ccc(C(=O)C2OC(=O)C(C)(C)C(=O)C2(C)C)cc1 (configuration not stated) returned Mtb growth 2%, Arbovirus inh 1, Mtb bLac sens -4, YopH PTP inh -13 and RecA splice inh 2.4.
For O=C(NCc1ccccc1)C(c1ccccc1F)N(C(=O)c1csnn1)C1CCCC1 (configuration not stated) the results were Mtb bLac sens -9 and RecA splice inh 1.0.
`CCOc1ccc(NC(=S)N(CCOC)C(C)c2cccnc2)cc1` (configuration not stated) gave Mtb growth 31%, Arbovirus inh -6, Mtb bLac sens -2 and RecA splice inh 0.2.
CCC1C(=O)N=C(SCC(=O)Nc2ccc(S(N)(=O)=O)cc2)NC1=O (configuration not stated) was read as Mtb growth 13%, Arbovirus inh 18, Mtb bLac sens 10 and RecA splice inh -0.9.
`O=C(Nc1cccc(F)c1)N1CCN(C(=O)c2ccco2)CC1` gave Mtb bLac sens 8 and RecA splice inh 2.1.
O=C1C=C(NCC2CCCO2)C2(CCCCC2)O1 (configuration not stated) was read as Mtb growth -4%, Arbovirus inh 3, Mtb bLac sens 16, YopH PTP inh -54 and RecA splice inh -4.4.
Screening CCOC(=O)C1(CCOC)CCN(C(=O)c2ccc(CSC)o2)CC1 returned Mtb bLac sens -4 and RecA splice inh 1.4.
For CCOc1ccc(-c2ccc(NS(=O)(=O)c3ccc([N+](=O)[O-])cc3)cc2)nn1 the results were Mtb bLac sens 7 and RecA splice inh 1.0.
CC1=C(C(=O)OCCc2ccccc2)C(c2ccsc2)NC(=O)N1C (configuration not stated) was read as Mtb growth 7%, Arbovirus inh 7, Mtb bLac sens -3, YopH PTP inh -37 and RecA splice inh -0.5.
`COC(=O)c1c(C)cc(C)n2c1nc1ccccc12` gave Mtb growth 8%, Arbovirus inh -2, Mtb bLac sens 13 and YopH PTP inh -16.
`CCOC(=O)c1cc(-c2ccc(F)cc2)n(CC(=O)NCc2cccnc2)c1C` gave Mtb growth 2%, Arbovirus inh 3, Mtb bLac sens -1 and RecA splice inh 0.2.
For COc1ccc(NC(=O)Nc2c(C)n(C)n(-c3ccccc3)c2=O)cc1 the results were Mtb growth 4%, Arbovirus inh -4, Mtb bLac sens 2, YopH PTP inh -4, RecA splice inh 1.2 and Arbovirus inh repeat 0.
For O=C(CCN1C(=O)/C(=C\c2ccccc2)SC1=S)NNC(=O)c1cccnc1 the results were Mtb growth 45%, Arbovirus inh 0, Mtb bLac sens 1, YopH PTP inh -25 and RecA splice inh -0.7.
For CCOC(=O)c1[nH]c(C)c(C(=O)N(C)C)c1C the results were Mtb growth -4%, Arbovirus inh 1, Mtb bLac sens -9, YopH PTP inh 6 and RecA splice inh 2.4.
`Cc1ccc(-c2ccnc3cc(C)nn23)cc1` gave Mtb bLac sens -3 and RecA splice inh -0.6.
`CCCCCCCCCCCNC(=O)c1ccoc1C` gave Mtb growth -3%, Arbovirus inh 18, Mtb bLac sens -10, YopH PTP inh -6 and RecA splice inh 17.
COc1cc(C(=O)NCC(=O)OCC(=O)Nc2ncc(Cl)cc2Cl)cc(OC)c1OC was read as Mtb growth -2%, Arbovirus inh -2, Mtb bLac sens 3 and RecA splice inh 0.0.
For Cc1ccc2[nH]c3c(=O)n(CC(=O)N4CC(C)CC(C)C4)ncc3c2c1 (configuration not stated) the results were Mtb bLac sens -1 and RecA splice inh 1.6.
CCOC(=O)C1(CC2CCCCO2)CCN(Cc2c(C)cc(C)cc2-n2cccn2)CC1 (configuration not stated) was read as Mtb growth 3%, Arbovirus inh 4, Mtb bLac sens -4 and RecA splice inh -0.8.
O=C(COC(=O)C1CCCCC1C(=O)N1CCc2ccccc21)NCc1ccco1 (configuration not stated) was read as Arbovirus inh 12, Mtb bLac sens -7, YopH PTP inh -20 and RecA splice inh -0.8.
Cc1ccc(OCC(=O)O/N=C(\N)c2ccccn2)cc1 was read as Mtb growth 4%, Arbovirus inh 4, Mtb bLac sens -1 and RecA splice inh 2.6.
CCN(CC)/C(=N\S(=O)(=O)c1ccc(F)cc1)c1ccccc1 was read as Mtb bLac sens 6 and RecA splice inh -2.1.
`Cc1nc2ccccc2nc1NS(=O)(=O)c1ccc(N)cc1` gave Mtb growth 11%, Mtb bLac sens 24 and RecA splice inh 1.6.
Screening C=C(C)c1cccc(C(C)(C)NC(=O)Nn2cnnc2)c1 returned Mtb growth 9%, Arbovirus inh 3, Mtb bLac sens -1, YopH PTP inh -46 and RecA splice inh 1.8.
`CCOC(=O)c1c(NC(=O)c2ccccc2C(=O)O)sc2c1CCCC2` gave Mtb bLac sens 1 and RecA splice inh 1.8.
`Cc1cc(C)n2c(SCC(=O)NC3CCCC(C)C3C)nnc2n1` (configuration not stated) gave Mtb growth -1%, Arbovirus inh 13, Mtb bLac sens -4 and RecA splice inh 0.0.
CN1CCN(C(=O)c2ccccc2N(Cc2ccccc2)S(=O)(=O)c2ccccc2)CC1 was read as Mtb growth 2%, Arbovirus inh 5, Mtb bLac sens -7, YopH PTP inh -16 and RecA splice inh -4.1.
For Cc1ccc(NS(=O)(=O)c2cc(C(N)=O)ccc2C)cc1 the results were Mtb growth -1%, Arbovirus inh -3, Mtb bLac sens 9, YopH PTP inh -24 and RecA splice inh -4.3.
CC(C)c1ccc(Nc2nc(Cl)nc(Cl)n2)cc1 was read as Mtb bLac sens 4 and RecA splice inh -3.8.
C#CCN(C(=O)CC1C(=O)NCCN1C/C=C/c1ccccc1)C1CCCCC1 (configuration not stated) was read as Mtb growth 1%, Arbovirus inh -2, Mtb bLac sens 1 and RecA splice inh -0.4.
Screening CC(C)OC(=O)c1cccc(C(=O)Oc2ccc(Br)cc2)n1 returned Mtb growth -11%, Arbovirus inh 0, Mtb bLac sens 4, YopH PTP inh -8 and RecA splice inh 11.
Cc1cccc(NP(=O)(Oc2ccccc2)Oc2ccccc2)c1C was read as Mtb bLac sens 5 and RecA splice inh 1.8.
Screening CCc1ccc(NC(=O)CSc2nnc(Cn3c(=O)sc4ccccc43)n2C)cc1 returned Mtb growth 48%, Arbovirus inh 3, Mtb bLac sens 12, YopH PTP inh -24 and Arbovirus inh repeat -1.
CCOC(=O)C1(Cc2cccc(OC)c2)CCN(Cc2ccccc2OC)CC1 was read as Mtb growth 4%, Arbovirus inh 11, Mtb bLac sens -3 and RecA splice inh -0.4.
CCOc1ccc(C(=O)C(C)OC(=O)c2nc(Cl)ccc2Cl)cc1 (configuration not stated) was read as Mtb bLac sens -14 and RecA splice inh 3.4.
For Cc1[nH]nc(N=Cc2c(O)n(C)c(=O)n(C)c2=O)c1-c1ccccc1 the results were Mtb growth 5%, Mtb bLac sens 3 and RecA splice inh 3.8.
`CCOC(=O)C1=NOC(CNC(=O)c2ccccc2Cl)C1` (configuration not stated) gave Mtb growth 1%, Arbovirus inh -1, Mtb bLac sens 1 and RecA splice inh -1.0.
For O=C(C(Sc1ccccc1)c1ccccc1)N1CCN(c2ccccc2)CC1 (configuration not stated) the results were Mtb growth 7%, Arbovirus inh -1, Mtb bLac sens 4, YopH PTP inh -16 and RecA splice inh 2.5.

Of the compounds above, 2 have a COOH group.
Screening NCCCC[C@@H](C(=O)NCCCCCCCCCCC(=O)N1CCNCC1)n1cc(CCCC(=O)O)nn1 returned Mtb bLac sens -4 and RecA splice inh -3.7.
`CCOC(=O)c1c(NC(=O)c2ccccc2C(=O)O)sc2c1CCCC2` gave Mtb bLac sens 1 and RecA splice inh 1.8.

(cont.)
`COC(=O)c1c(C)[nH]c(C)c1C(=O)c1ccccc1Cc1ccccc1` gave Mtb growth -9%, Mtb bLac sens 1 and RecA splice inh 6.9.
COc1cc(-c2nc(C(=O)NCC3CCCO3)cc3c2[nH]c2ccccc23)cc(OC)c1OC (configuration not stated) was read as Mtb bLac sens 64 and RecA splice inh 6.3.
COCCNC(=O)c1ccc2c(c1)nc(C)n2-c1cccc(Cl)c1 was read as Mtb bLac sens 3 and RecA splice inh -1.4.
For OC(COc1ccc(Cl)cc1Cl)Cn1ccnc1 (configuration not stated) the results were Mtb bLac sens -3 and RecA splice inh 2.2.
Screening Clc1nc(NCc2cccnc2)nc(N2CCOCC2)n1 returned Mtb growth 3%, Arbovirus inh 2, Mtb bLac sens 1, YopH PTP inh -30 and RecA splice inh -0.5.

Arranged by formula weight (smallest number first): part of the list above
Screening Clc1nc(NCc2cccnc2)nc(N2CCOCC2)n1 returned Mtb growth 3%, Arbovirus inh 2, Mtb bLac sens 1, YopH PTP inh -30 and RecA splice inh -0.5.
COCCNC(=O)c1ccc2c(c1)nc(C)n2-c1cccc(Cl)c1 was read as Mtb bLac sens 3 and RecA splice inh -1.4.
`COC(=O)c1c(C)[nH]c(C)c1C(=O)c1ccccc1Cc1ccccc1` gave Mtb growth -9%, Mtb bLac sens 1 and RecA splice inh 6.9.
